HSD17B inhib: inhibitors of human HSD17B10 dehydrogenase | Q99714 | recombinant HSD17B10, NADH fluorescence kinetic; many of its hits are not listed in these tables | Potency, µM (highest dose often 57.1 µM), inactives show at the highest dose activity change, negative = inhibition, usual class: inhibitors | hit rate 7.6% among 75,000 | AID 893; active = well fitted inhibition curve with a large enough effect; inconclusive = small, poorly fitted or top-dose-only effect; inactive = no such curve, though single readings can be large or run the other way;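 also: the protocol describes HADH2 (HSD17B10) and not the HSD17B4 of the title; nearly all actives have a fitted effect of over 70% in size; most hits overshoot -100% by far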
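Enzyme plus compound, 15 min room temperature; substrate mix added (NAD+ 1 mM, beta-hydroxybutyryl-CoA 90 uM final); plates read kinetically for NADH fluorescence. HADH2 was His-tagged, E. coli-derived, 20 nM.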
Numbers without * were called inactive; ? = inconclusive; [ ] = remark or other dose. % is scaled to controls: 0 for no effect and ±100 for the full control effect; potency is read from the fitted curve at half-maximal effect. These rows are one share of the data (hit frequency here may not be typical).

SMILES	HSD17B inhib
O=C(c1ccc(NC2=NC3CS(=O)(=O)CC3S2)cc1)N1CCc2ccccc2C1 (stereo unspecified)	4%
CCOc1ccc(Nc2oc(-c3cccs3)nc2C#N)cc1	-13%
O=C(CCNS(=O)(=O)c1ccccc1F)NCc1ccc2c(c1)OCO2	7%
CC(C)CN1CC2(CCN(C(=O)c3csnn3)CC2)C1	3%
COc1cccc(-n2c(Cc3cc(=O)[nH]c(=O)[nH]3)nnc2SCC(=O)Nc2ccccc2)c1	13%
O=C(NCCN1CCCC1)c1ccc(CS(=O)(=O)c2c(Cl)cccc2Cl)o1	11%
COCc1nnc(NC(=O)C(C)C)s1	5%
O=C(CSc1nnc(CNC(=O)c2ccccc2F)o1)NCCc1ccccc1	4%
O=S(=O)(c1ccccc1)N1C2CCC1CC(O)(c1cccnc1)C2 (stereo unspecified)	-5%
Nc1nc(N)c2nn(-c3ccc(C(=O)O)cc3)nc2n1	4µM*
CC(=O)c1cc(F)c(N2CCN(C(=O)Cc3ccccc3)CC2)cc1C	-2%
CCC(c1nnnn1C(C)(C)CC)N(CCCO)Cc1cc2cc(C)cc(C)c2[nH]c1=O (stereo unspecified)	?
O=C(Cn1ncc2c(=O)oc3ccccc3c21)N1CCCN(Cc2ccccc2F)C1	9%
O=C(NCc1ccccc1)c1cccc(S(=O)(=O)N2CCOCC2)c1	6%
Cc1cc(C)n2cc(CSc3nnc(-c4ccccc4)o3)nc2n1	32µM*
CCN(CC)Cc1c(C(=O)OC)nnn1-c1nonc1N	0%
Cc1ccc(Nc2ncc3c(n2)CC(c2ccco2)CC3=O)c(C)c1 (stereo unspecified)	32µM*
CCC(c1nnnn1Cc1cccs1)N1CCN(c2nc3ccccc3s2)CC1 (stereo unspecified)	0%
O=C(CN1CCN(C(=O)c2cccc(F)c2)CC1)Nc1ccccc1F	6%
COc1ccc2[nH]c(C(=O)O)c(CCC(=O)O)c2c1	20µM*
O=C(COC(=O)C1CC(=O)N(c2ccccc2)C1)c1ccccc1 (stereo unspecified)	6%
CC(C)(C)NCc1cccn1-c1sc2c(c1C#N)CCCC2	5%
O=C(Nc1ccc2c(c1)Cc1ccccc1-2)c1ccco1	-12%
CSc1ccccc1-n1nnnc1SCC(=O)NCc1cccs1	4%
O=c1[nH]cnc2scc(C3COc4ccccc4O3)c12 (stereo unspecified)	3%

Reprinted from the listing (three entries):
SMILES	HSD17B inhib
O=C(CCNS(=O)(=O)c1ccccc1F)NCc1ccc2c(c1)OCO2	7%
CC(C)CN1CC2(CCN(C(=O)c3csnn3)CC2)C1	3%
COc1cccc(-n2c(Cc3cc(=O)[nH]c(=O)[nH]3)nnc2SCC(=O)Nc2ccccc2)c1	13%

(listing goes on)
SMILES	HSD17B inhib
Cc1cccc(C)c1NC(=O)Nc1ccc(S(N)(=O)=O)cc1	8%[11.4 µM]
Cc1nc2ccc(F)cc2cc1C(=O)NCc1ccco1	4%
O=C1CCCC2=C1C(c1cn(-c3ccccc3)nc1-c1cccs1)c1c([nH]c(=O)[nH]c1=O)N2 (stereo unspecified)	-25%
CN1/C(=C\C(=O)COc2ccc3c(c2)OCO3)C(C)(C)c2ccccc21	?
O=C1C2C3C=CC(O3)C2C(=O)N1CC(O)c1ccccc1 (stereo unspecified)	-19%
Cc1cc2n(n1)C(c1sccc1C)Nc1ccccc1-2 (stereo unspecified)	25µM*
COc1cc(NC(=O)CCc2ccccc2)c(C(=O)O)cc1OC	5%
S=C1N[C@H](c2ccccc2)N[C@H](c2ccccc2)S1	-17%[11.4 µM]
CCOC(=O)c1c(NC(=O)CNCC(O)CO)sc(C)c1C (stereo unspecified)	-2%
COc1ccc(OC)c(NC(=O)CN(c2ccc(C)cc2)S(=O)(=O)c2c(C)noc2C)c1	2%
CN1C(=O)c2ccc(NC(=O)C3CCCCC3)cc2C1=O	25µM*
COc1ccc(N2CCN(C(=O)Cn3nnc(-c4ccc(OC)c(OC)c4)n3)CC2)cc1	7%
CN(CC(=O)NC1CCCCC1)S(=O)(=O)c1cccc2nsnc12	13%
C=CCNS(=O)(=O)c1sccc1/C=N/O	-8%
COC(=O)[C@@]1(Cc2ccccc2)[C@H]2c3cc(C(=O)N4CCCC4)n(Cc4ccc(O)c(OC)c4)c3C[C@H]2CN1C(=O)c1ccccc1	7%
CC(C)N1C(=O)C2C(C(=O)NC3CCCCC3)C3C=CC2(O3)C1C(=O)NC1CCCCC1 (stereo unspecified)	13%
CCN1CCN(C(=O)Nc2ccc(Cc3ccc(NC(=O)N4CCN(CC)CC4)cc3)cc2)CC1	0%
CCCn1c(=O)c(C(=O)Nc2cnccn2)c(O)c2ccccc21	16%
C/C=C/COC(=O)c1[nH]c2c(c1C)C(=O)CC(c1ccc(N(C)C)cc1)C2 (stereo unspecified)	-2%
COc1ccccc1NC(=O)CSc1nnc(Cc2ccccc2)o1	-8%
CCc1cccc(C)c1NC(=O)CCCC(=O)O	9%
O=C(c1ccc(S(=O)(=O)N2CCOCC2)cc1)N1CCN(c2ccc(F)cc2)CC1	5%
Cc1[nH]n2c(=O)c3c(nc2c1-c1ccccc1)CCC3	32µM*
O=c1cc(-c2cccc(O)c2)oc2cc(O)ccc12	-9%
Cc1nc2ccc(S(=O)(=O)NC(C(=O)N3CCn4c3nc3ccccc34)C(C)C)cc2s1 (stereo unspecified)	-11%
Cc1ccc(S(=O)(=O)NCCN=C(CN2CCOCC2)NS(=O)(=O)c2ccc(C)cc2)cc1	-2%
CC1C2CC(C(S(=O)(=O)N3CCOCC3)C2=O)C1(C)C (stereo unspecified)	17%
COCCn1c(Cc2ccccc2)nnc1SCC(=O)NC(C)(C)C	0%
O=C(Nc1c(-c2ccccc2)nc2sccn12)c1ccccc1	1%
CC1(C)N=C(N)N=C(N)N1c1cccc(OCc2cccc(N)c2)c1	3%[11.4 µM]
O=C(O)CN1CCOCCOCCN(CC(=O)O)CCOCCOCC1	2%
Cc1cc(NC(=O)COc2cccc(C)c2C)no1	-1%
O=C(c1csc(Nc2ccccc2Cl)n1)N1CCCC1	-24%
COc1ccccc1NC(=O)C1=C(C)Nc2ncnn2C1c1ccccc1C (stereo unspecified)	-4%
O=C(/C=C/c1ccccc1)c1ccc(O)cc1O	?
Nc1c(Sc2ccccc2)c(=O)[nH]c(=O)n1Cc1ccccc1	8%
CCOC(=O)c1ccccc1NC(=O)Cn1cnc2c(cnn2-c2ccccc2)c1=O	1%
Cc1ccc(NC(=O)N(CCCN2CCOCC2)Cc2cc3cc4c(cc3[nH]c2=O)OCO4)cc1	32µM*
COc1ccc(-c2nnc(NC(=O)c3ccc(S(=O)(=O)N4CCc5ccccc5C4)cc3)o2)cc1	0%
CCCC(CCC(=O)OC)(C(=O)OCC)c1csc(N)n1 (stereo unspecified)	-1%
CCOC(=O)CSc1nnc(CNc2ccc(F)cc2)o1	-12%
Nc1nonc1C(=O)NCCNCc1cc(Br)ccc1OCc1ccccc1F	-6%
CCOC(=O)Cc1csc(NC(=O)CSc2nnc(-c3ccc(C)cc3)o2)n1	-7%
COC(=O)c1ccc2c(=O)n(Cc3ccco3)c(SCC(=O)Nc3ccc(C)c(Cl)c3)nc2c1	-7%
CCC(NC(=O)c1ccccc1NC(=O)c1ccco1)C(=O)O (stereo unspecified)	0%
CC(=O)c1cccc([N+](=O)[O-])c1	6%
Cc1cccc(S(=O)(=O)Nc2nc3ccccc3nc2NCc2ccco2)c1	25µM*
O=C(O)c1ccc(N2CCCC2=O)cc1	9%
Cn1c(=O)oc2cc(S(=O)(=O)Nc3cccc4c3CCCC4)ccc21	-3%
COCC(=O)N1CCC2(CCN(Cc3ccccc3)CC2)CC1	-1%

Compounds above that have two or more sulfur atoms, in the order listed:
SMILES	HSD17B inhib
O=C(c1ccc(NC2=NC3CS(=O)(=O)CC3S2)cc1)N1CCc2ccccc2C1 (stereo unspecified)	4%
CCC(c1nnnn1Cc1cccs1)N1CCN(c2nc3ccccc3s2)CC1 (stereo unspecified)	0%
CSc1ccccc1-n1nnnc1SCC(=O)NCc1cccs1	4%
S=C1N[C@H](c2ccccc2)N[C@H](c2ccccc2)S1	-17%[11.4 µM]
CN(CC(=O)NC1CCCCC1)S(=O)(=O)c1cccc2nsnc12	13%
C=CCNS(=O)(=O)c1sccc1/C=N/O	-8%
Cc1nc2ccc(S(=O)(=O)NC(C(=O)N3CCn4c3nc3ccccc34)C(C)C)cc2s1 (stereo unspecified)	-11%
Cc1ccc(S(=O)(=O)NCCN=C(CN2CCOCC2)NS(=O)(=O)c2ccc(C)cc2)cc1	-2%
CCOC(=O)Cc1csc(NC(=O)CSc2nnc(-c3ccc(C)cc3)o2)n1	-7%

Single values from the results shown:
HSD17B inhib, CCC(NC(=O)c1ccccc1NC(=O)c1ccco1)C(=O)O (stereo unspecified) reads 0%
HSD17B inhib, COc1ccc(-c2nnc(NC(=O)c3ccc(S(=O)(=O)N4CCc5ccccc5C4)cc3)o2)cc1 reads 0%
HSD17B inhib, Cc1cc(NC(=O)COc2cccc(C)c2C)no1 reads -1%
HSD17B inhib, Nc1nonc1C(=O)NCCNCc1cc(Br)ccc1OCc1ccccc1F reads -6%
HSD17B inhib, COc1ccccc1NC(=O)C1=C(C)Nc2ncnn2C1c1ccccc1C (stereo unspecified) reads -4%

New compounds follow.
SMILES	HSD17B inhib
CC(OC(=O)CCc1nc2ccccc2c(=O)[nH]1)C(=O)NCc1ccc2c(c1)OCO2 (stereo unspecified)	-24%
Cc1cccc(N(CC(=O)NC2CCCCC2)C(=O)CCC(=O)Nc2ccccn2)c1	-9%
Cc1nc2ccccc2c(=O)n1NC(=O)c1c(O)c2c(n(CC(C)C)c1=O)CCCC2	3%
Cc1cccc(CSC2=NCCN2C(=O)c2ccco2)c1	-7%
O=[N+]([O-])c1ccc(Nc2nc3ccccc3s2)cc1	-22%[11.4 µM]
CCc1cc2cc(C(=O)N3CCN(Cc4ccccc4)CC3)sc2s1	-6%
O=C(CCc1ccccc1)Nc1ncn[nH]1	8%
O=C(NCc1ccccn1)c1ccc(NC(=O)c2ccco2)cc1	6%
CC1=C(C(=O)OC2CCCCC2)C(c2ccc(C)o2)C2=C(CCCC2=O)N1 (stereo unspecified)	-6%
COc1ccc(S(=O)(=O)N2CCN(Cc3ccccc3)CC2)cc1	1%
CCN(CC)CCNCc1ccc(-c2ccc(Cl)cc2)o1	4%
Cc1ccc(C(=O)NCc2occc2C(=O)O)o1	-16%
O=C(CSc1nnnn1C1CCCCC1)NCc1ccco1	-1%
CCOc1ccc(NC(N)=O)cc1	-1%
COc1ccc(N(Cc2ccco2)C(=O)c2ccccc2F)cc1OC	2%
CCOC(=O)c1cnc2ccc(Cl)cc2c1N1CCN(C)CC1	-2%
CCCCOc1ccc(C(C)(O)CCN2CCOCC2)cc1 (stereo unspecified)	-16%
Cn1c(COc2ccc(Cl)cc2)nnc1SCc1ncc(-c2ccccc2)o1	-13%
CN(C)C(=O)c1ccc(-c2cc(NCc3cccnc3)ncn2)cc1	32µM*
COc1cc(C(=O)NC2CC3CCCC(C2)N3C2CC2)cc(OC)c1OC (stereo unspecified)	7%
Cc1cc(=O)cc(C)n1-c1ccc2c(c1)nc(C)n2-c1ccccc1	7%
O=C1CC(=O)N(Cc2cccs2)C(=O)N1	?
CN(C)S(=O)(=O)Nc1ccc2c(c1)OCO2	-2%
N#CCCn1c(=O)cnc2cnc(N3CCOCC3)nc21	?
Cc1cccc2sc(NC(=O)CCNS(=O)(=O)c3cccs3)nc12	-4%

The results go on.
SMILES	HSD17B inhib
CC1CCc2nn(CC(=O)N3CCN(C(=O)c4ccco4)CC3)cc2C1 (stereo unspecified)	6%
O=C(c1c(O)c2ccccc2oc1=O)C1CCC1	-19%
O=C(CSc1nnnn1-c1ccccc1)CC(=O)Nc1ccc(Cl)cc1	-22%
COC(=O)c1c(N)n(-c2ccc(N3CCOCC3)cc2)c2nc3ccccc3nc12	-7%
CN(C)Cc1ccccc1-c1nccc(NCc2cccs2)n1	4%
Cn1c(=O)c2c(nc(-n3ccnc3)n2Cc2ccccc2)n(C)c1=O	12%
COc1ccccc1OCCCn1cc(C#N)c2ccccc21	-28%
Cc1ccc(C(=O)NCC(=O)O)cc1S(=O)(=O)N1CCCCC1	14%
COc1ccc(CNC(=O)C2CCN(S(=O)(=O)c3cc(OC)ccc3OC)CC2)cc1	-4%
Cc1nn(C(C)(C)C)c(OC(=O)c2ccc3c(c2)OCO3)c1S(=O)(=O)c1ccccc1	?
O=C(Nc1ccc(N2CCOCC2)c(Cl)c1)c1ncn[nH]1	9%
C=CCOC(=O)C(C#N)c1nc2ccccc2nc1N1CCN(c2ccccc2OC)CC1 (stereo unspecified)	-10%
Cc1nc(CCNC(=O)c2cccs2)cs1	-3%
CC(C)CCNC(=O)C(C)N(C(=O)Cn1nnc(-c2ccc(F)cc2)n1)C1CCCC1 (stereo unspecified)	1%
COC(=O)CN1C(=O)N(c2ccccc2)C(N(O)C(=O)Nc2ccccc2)C1(C)C (stereo unspecified)	5%
O=C(O)c1cc(O)c2c(c1)[C@H]([C@H]1c3cc(C(=O)O)cc(O)c3C(=O)c3c(O[C@@H]4OC(CO)C(O)C(O)C4O)cccc31)c1cccc(O[C@@H]3OC(CO)C(O)C(O)C3O)c1C2=O (stereo partly specified)	3.2µM*
COc1ccccc1-c1nn2c(-c3ccccc3Cl)nnc2s1	-1%
Cc1oc(C(C)(C)C)c(CN2CCCC2)c1C(=O)O	11%
O=C(c1cc(-c2ccco2)on1)N1CCN(c2ccccc2)CC1	-6%
CCOc1ccccc1NC(=O)CSc1nnnn1-c1ccc(C(=O)OC)cc1	5%
CCCCCCNS(=O)(=O)c1nc2nc(C)cc(C)n2n1	7%
CN(C)Cc1ccccc1-c1ccc2ncnc(NC3CC3)c2c1	-6%
COc1ccc(Br)cc1C(=O)Nc1ccc(N2CCN(S(C)(=O)=O)CC2)cc1	-21%
Cc1nc2c3ccccc3n(CC#N)c(=O)n2n1	10%
CC[C@H](NC(=O)c1c(C)c(-c2ccccc2)nc2ccccc12)c1ccccc1	-11%

Source: PubChem BioAssay (National Center for Advancing Translational Sciences (NCATS))
